MT1-MMP act inh: blocks activation of human MT1-MMP | P50281 | HT1080 RFP-PRO-GFP cells, GFP/RFP ratio fluorescence, overnight; percent of plate control window, DMSO zero | GFP/RFP ratio change, % at 20 µM | hit rate 0.061% among 360,000;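 active = GFP/RFP ratio change of at least 30% with cell ATP level not reduced by more than half and red fluorescence within 50% of control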; note: strong numbers were not always called active
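Assay system: HT1080 RFP-PRO-GFP cells | Dosing: 20 µM single dose, 1% DMSO | Incubation: Cells overnight before dosing, compound overnight, 37 °C, 5% CO2 | Evaluation: GFP/RFP fluorescence ratio | Control set: DMSO-only wells and HT1080 RFP-L50D-GFP cell wells as references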
HIV Env fusion: HIV envelope-mediated fusion inhibition. HeLa-JRFL Env/CEM21 cell fusion, luciferase. AID 651610. inhibition, % at 12.3 µM. hit rate 1.1% among 360,000;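 active = mean replicate inhibition score of at least 50 and every replicate individually at or above 50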;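 note: 0% = plate neutral controls and 100% = maraviroc near 300 nM; one replicate is shown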
PABP FP inh: PABP-poly(A) binding inhibition; AID 2014; inhibition, % at 35 µM; PABP-poly(A) RNA binding, fluorescence polarization; hit rate 1% among 290,000;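 active = 50% or more with normal probe brightness, or confirmed in later tests; about a fifth of its hits are not listed in these tables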;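 note: calls also rest on retests at 20 µM and on dose response follow-up; controls were probe without protein and protein plus probe with vehicle; some compounds called inactive have numbers as strong as hits; many hits fall short of the cut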
CSC inhib: blocks cancer stem cells. cancer stem cell-like cells viability, luminescence. hit rate 1.1% among 300,000. inhibition, % at 7.5 µM. AID 2717;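 active = mean at 75% or more and at least half the replicates too; tested in HMLE shEcad cells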;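 note: 0% = median of negative and 100% = median of positive control wells; the first replicate is given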
Rce1 inh: blocks yeast Ras-converting enzyme | calls only | yeast membranes, quenched prenylated peptide cleavage fluorescence | hit rate 0.27% among 290,000;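 active = fall in fluorescence gain of 50% or more versus controls, with final raw signal at or below 3038400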;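 note: plate controls were neutral control wells for no effect and wells lacking membranes for full effect; tested at 10 µM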
Target sequence (Q03530 whole entry, looked up): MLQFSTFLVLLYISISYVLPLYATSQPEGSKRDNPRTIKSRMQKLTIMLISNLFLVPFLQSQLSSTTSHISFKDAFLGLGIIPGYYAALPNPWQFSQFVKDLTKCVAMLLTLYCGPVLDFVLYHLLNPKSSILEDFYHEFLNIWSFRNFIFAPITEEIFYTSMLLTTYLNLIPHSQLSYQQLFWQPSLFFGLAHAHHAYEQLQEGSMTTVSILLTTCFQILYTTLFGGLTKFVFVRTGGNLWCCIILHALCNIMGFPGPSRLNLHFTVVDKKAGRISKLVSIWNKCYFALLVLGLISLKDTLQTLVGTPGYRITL
UUG fidelity: yeast start codon fidelity modulation; hit rate 0.13% among 350,000; AID 602363; S. cerevisiae UUG-firefly luciferase reporter, luminescence/redox ratio; activity score, % at 18.7 µM;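 active = replicate mean at a twofold rise or more, about +100% in these data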;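 note: firefly luciferase made from a UUG start codon reports start codon fidelity; reporter light over untreated wells divided by growth signal over untreated wells; some hits fall short of that in this replicate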
eIF4H FP inh: inhibitors of RNA binding by human eIF4H; Q15056; eIF4H fluorescence polarization binding assay; inhibition, % at 35 µM; hit rate 0.94% among 290,000; AID 2012;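 active = 50% or more with normal probe brightness, or confirmed in later tests; about a fifth of its hits are not listed in these tables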;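 note: calls also rest on retests at 20 µM and on dose response follow-up; 0% = protein and probe with vehicle and 100% = probe without protein; strong numbers were not always called active; many hits fall short of the cut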
eIF4H FP inh retest: also measured in eIF4H FP inh; calls as there; inhibition, %; compound at 20 µM; confirmation average;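 mean of two retest wells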
PABP FP inh retest: also measured in PABP FP inh; calls as there; inhibition, %; compound at 20 µM; confirmation repeats;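 mean of two retest wells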
MT1-MMP act inh RFP: further read-out of MT1-MMP act inh, marked with its call; RFP signal change, %; measured here: RFP expression control read;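 0 = vehicle wells; hits needed this value within 50% of zero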
* hit, by the source's call; i = inactive; nt = not tested or not shown.

A first look (2 entries):
SMILES	MT1-MMP act inh	MT1-MMP act inh RFP	HIV Env fusion	PABP FP inh	CSC inhib	Rce1 inh	UUG fidelity	eIF4H FP inh	others
CC(=O)N1c2ccc(S(=O)(=O)NCC3CCC(C(=O)Nc4cc(C)ccn4)CC3)cc2CC1C (stereo unspecified)	-12	-20	38	0	-9	i	10	-7
COc1ccccc1C(=O)N1CCN(c2ccccn2)CC1	2	1	nt	-4	-10	i	-12	-8

The whole of this part, from the first entry:
SMILES	MT1-MMP act inh	MT1-MMP act inh RFP	HIV Env fusion	PABP FP inh	CSC inhib	Rce1 inh	UUG fidelity	eIF4H FP inh	others
CC(=O)N1c2ccc(S(=O)(=O)NCC3CCC(C(=O)Nc4cc(C)ccn4)CC3)cc2CC1C (stereo unspecified)	-12	-20	38	0	-9	i	10	-7
COc1ccccc1C(=O)N1CCN(c2ccccn2)CC1	2	1	nt	-4	-10	i	-12	-8
CCOC(=O)c1ccc(NC(=O)c2ccc(CN3CCOCC3)cc2)cc1	1	-15	nt	110	6	i	-14	-10	eIF4H FP inh retest=2;PABP FP inh retest=3
Cc1cccc(OP(=O)(Nc2c(C)n(C)n(-c3ccccc3)c2=O)Oc2cccc(C)c2)c1	1	3	1	2	0	i	nt	-2
CN1CCN(c2ncc3c(n2)CC(c2ccccc2F)CC3=O)CC1 (stereo unspecified)	-6	1	8	5	29	i	nt	0
CC(C)Cc1nnc(NC(=O)CCNC(=O)c2ccccc2Cl)s1	2	0	13	nt	nt	nt	-8	nt
O=C(c1ccccc1F)N1CCN=C1c1ccccc1	3	1	11	2	-18	i	-23	-1
Cc1ccc(NC(=O)CN2C(=O)c3ccccc3C2=O)c(C)c1	0	1	-3	0	-10	nt	-11	-3
O=C(C[n+]1ccccc1)Nc1ccccc1[N+](=O)[O-]	1	3	12	1	-2	i	9	-8
COCCCn1c(Cc2csc(Nc3ccc(F)cc3)n2)nnc1SCC(N)=O	4	4	nt	9	nt	i	-19	8
CSc1ccccc1NC(=O)CSc1cccc[n+]1[O-]	3	3	-1	nt	-11	nt	-2	nt
CSc1ccc(/C=N/n2c(Cc3ccc(Br)cc3)n[nH]c2=S)cc1	-1	-7	7	12	-9	i	-3	10
CCNC(=O)CN1C(=O)NC(CCc2ccccc2)C1=O (stereo unspecified)	2	7	nt	1	-15	i	-10	0
COc1ccc(CCNC(=S)NC(=O)c2c(-c3ccccc3Cl)noc2C)cc1OC	-3	-8	21	-6	0	i	-12	-7
COc1ccc(-n2nc([N+](=O)[O-])c(=NCCC3=CCCCC3)n2O)cc1	3	0	11	-1	2	i	2	0
CCOc1ccc(/C=C\c2nc(O)c([N+](=O)[O-])c(=O)[nH]2)cc1OCC	1	1	-9	25	-12	i	-13	-5
CCc1ccccc1NC(=O)CSC1=C(C#N)C(c2ccc3c(c2)OCO3)C2=C(CCCC2=O)N1 (stereo unspecified)	5	-6	21	19	-2	i	-8	10
O=C(CSCc1c(F)cccc1Cl)NCc1ccco1	-3	2	42	-14	7	i	-19	-6
Cn1c(SCC(=O)NC2CC2)nnc1-c1cccc(NC(=O)c2ccccc2F)c1	4	1	-31	-6	-5	i	-8	-14
Cc1cc(C)c2cc(C#N)c(N3CCCC3)nc2c1	-3	3	-405	11	8	nt	-10	8
CCOC(=O)C1=C(C)N(C)C(=O)NC1c1c(C)nn(-c2ccc(C)cc2)c1Cl (stereo unspecified)	7	-8	nt	-3	-5	i	nt	2
O=C(CN(Cc1ccco1)C(=O)c1ccc(Cl)cc1)Nc1ccc(Cl)c(Cl)c1	3	3	nt	-1	-22	i	-25	-6
O=C(NCc1cccc(C(F)(F)F)c1)C1CC2Cn3c(nc4ccccc43)C2N1Cc1ccccc1 (stereo unspecified)	-4	-1	-37	nt	-10	i	-18	nt
O=C(O)/C(=C/c1ccco1)NC(=O)c1ccccc1	-3	0	1	120*	-8	i	-5	72*	eIF4H FP inh retest=92*;PABP FP inh retest=59*
COCCCNc1ccn2nc(-c3ccc(OCCN4CCOCC4)cc3)cc2n1	3	1	-41	nt	nt	nt	-9	nt
COc1cc(CNc2ccc3[nH]c(=O)[nH]c3c2)ccc1OCc1ccccc1F	-1	-10	-9	-2	11	i	-14	0
CC1=NN(c2nc(-c3ccc(Cl)cc3)cs2)C(=O)C1	5	-3	13	8	123*	i	-16	41
Cc1cc(C)nc(Sc2ncnc3sc4c(c23)CCC4)n1	-3	0	-29	3	-7	i	-12	-6
O=[N+]([O-])c1c(NCc2ccco2)ccc2nonc12	0	4	9	81*	-1	i	134*	123*
O=C(Nc1ccccc1Cl)N1CCN(c2ccc3nncn3n2)CC1	-2	3	-4	8	12	i	-5	-3
Cc1c(N(C)C(=O)C23CC4CC(CC(C4)C2)C3)c(=O)n(-c2ccccc2)n1C	2	2	nt	-3	7	i	-22	-2
COc1ccc(C(=O)CSc2nnc3n2CCCN3C(=O)Nc2ccccc2)cc1	1	-2	1	-8	-10	i	4	-3
O=C(Nc1ccccn1)c1cccnc1	5	3	nt	16	-7	i	nt	1
Cc1cccc(C)c1OCC(=O)Nc1nnc(C2CCCO2)s1 (stereo unspecified)	-6	1	nt	3	-11	i	0	-2
O=C(Nc1ccc2ccccc2c1)c1cccc([N+](=O)[O-])c1	-3	-4	-78	-1	2	i	0	-2
Cc1nc2ccc(NC(=S)NCCCO)cc2nc1C	12	9	5	15	-18	i	nt	-5
COC(C(=O)Nc1ccc(C(N)=O)cc1)c1ccccc1 (stereo unspecified)	-3	3	15	-2	-9	nt	nt	4
Cc1onc(C(=O)NC2CCCCC2)c1[N+](=O)[O-]	-4	0	nt	7	-16	i	9	-2
COC(=O)c1ccc(C(=O)OC)c(NC(=O)CN2CCN(c3ccccc3)CC2)c1	1	-4	nt	0	nt	i	-19	4
COc1ccc(C2C(C(C)=O)=C(C)N=c3s/c(=C\c4ccc5c(c4)OCO5)c(=O)n32)c(OC)c1 (stereo unspecified)	-15	-4	nt	nt	-4	i	-18	nt
COc1ccc(NC(=O)c2sc3ncnc(N4CCN(c5ccccn5)CC4)c3c2C)cc1Cl	-6	-21	5	13	11	i	-4	-9
CC1Cc2ccccc2N1C(=O)CCS(=O)(=O)c1ccc2c(c1)NC(=O)CS2 (stereo unspecified)	-5	5	15	13*	-3	i	-9	58	eIF4H FP inh retest=-2;PABP FP inh retest=55*
COC(=O)c1sccc1NC(=O)c1ccc(Br)s1	-2	4	2	-12	-5	i	-10	-3
O=C(NC(=S)NCc1ccccc1)c1ccccc1[N+](=O)[O-]	2	3	11	-4	4	i	nt	3
Cc1ccc(S(=O)(=O)N(C)c2ccc(C(=O)NCC(c3ccccc3)N3CCCC3)cc2)cc1 (stereo unspecified)	7	-4	-22	nt	nt	nt	1	nt
Cc1[nH]c2ccccc2c1-c1csc(NC(=O)CSCC(=O)O)n1	-4	5	3	2	-1	i	nt	-11
COc1ccc(CN2CCCC(C(=O)N3CCCCC3)C2)cc1OC (stereo unspecified)	0	3	2	-3	-13	i	-11	4
CN(C)C(N)=NCCC[C@H](N)C(=O)O	6	6	6	nt	-4	i	-10	nt
O=C(OC(C(=O)NC1CCCC1)c1ccccc1F)c1ccco1 (stereo unspecified)	1	4	9	-7	5	i	nt	-6
O=C(/C=C/c1ccccc1)Nc1ccc2c(c1)C(=O)NC2=O	1	2	-13	17	-10	i	-28	-11
The list goes on.
SMILES	MT1-MMP act inh	MT1-MMP act inh RFP	HIV Env fusion	PABP FP inh	CSC inhib	Rce1 inh	UUG fidelity	eIF4H FP inh	others
Cc1cc(NC(=O)CCCOc2ccc(Cl)cc2Cl)no1	-1	-2	nt	5	7	i	3	1
COc1ccc2c(c1OC)C(=O)OC2Nc1ccccn1 (stereo unspecified)	-1	4	nt	6	-4	i	2	-3
CCN(C(=O)Nc1ccccc1)c1ccccc1	5	6	-7	18	-7	i	-12	3
CC(C)(C)c1ccc(C(=O)N2CCCN(C(=O)c3ccc(C(C)(C)C)cc3)CC2)cc1	-1	-8	19	-17	8	i	nt	-4
O=C1C2CCCN2C(=O)N1CCN1CCN(c2ccccc2)CC1 (stereo unspecified)	2	6	0	7	-3	i	-12	4
O=C(O)c1ccc(Nc2ccc(Cl)c(Cl)c2)c([N+](=O)[O-])c1	4	5	3	11	11	i	-17	-3
C#CCOCCOCCOCCNc1nc(N2CCN(C(=O)CCCCCCCCCCNC(=O)[C@@H](CCSC)n3cc(CCO)nn3)CC2)nc(N2CCN(C(=O)CCCCCCCCCCNC(=O)[C@@H]([C@H](C)O)n3cc(C)nn3)CC2)n1	24	1	17	nt	-7	nt	-10	nt
COCCNC(=O)c1cn(C)c2ccccc2c1=O	3	3	1	2	-11	i	nt	10
O=C(NCC1CCCO1)c1onc(CSc2cccc(Cl)c2)c1C(=O)O (stereo unspecified)	-1	3	17	0	-1	i	-2	-3
O=C(NCC1CCCN1S(=O)(=O)c1cccs1)c1ccc(F)c(F)c1 (stereo unspecified)	-1	-9	11	nt	-4	i	10	nt
Cc1ccc(Cl)cc1N(CC(=O)NC(C)c1ccccc1)S(C)(=O)=O (stereo unspecified)	-4	3	8	1	-9	i	-8	-6
COc1ccc(/C=C2\CCc3ccccc3C2=O)cc1O	-2	-12	-201	4	60	i	-42	-10
COc1ccccc1NC(=O)C(C)OC(=O)CN1C(=O)C2CC=CCC2C1=O (stereo unspecified)	0	0	-22	nt	4	i	nt	nt
O=C(COc1ccc(F)cc1)NCC1(N2CCCCC2)CCCCC1	2	5	-1	nt	nt	nt	-8	nt
Cc1cccc2sc(N(CCCN(C)C)C(=O)c3cc4ccccc4oc3=O)nc12	1	1	-44	-10	-28	i	0	7
CC(OC(=O)c1ccc(Cl)c([N+](=O)[O-])c1)C(=O)N1CCN(Cc2ccccc2)CC1 (stereo unspecified)	2	0	1	nt	nt	nt	-7	nt
Cc1cccc(C(=O)Nc2nc(C)c(C(=O)Nc3ccc4c(c3)CCC4)s2)c1	-4	-18	-59	-1	nt	i	-23	1
CC(C)(C)N/C=C(\C#N)S(=O)(=O)c1ccc(Br)cc1	2	6	6	5	-5	i	-2	-1
Cc1ccc(C(=O)N/C(=C\c2ccco2)C(=O)NC2CCS(=O)(=O)C2)cc1 (stereo unspecified)	1	3	2	6	-11	i	-10	15
CCN(C(=O)CSc1ncnc2sc(C)c(C)c12)C1CCS(=O)(=O)C1 (stereo unspecified)	2	-10	6	-15	-5	i	nt	3
CCOc1ccccc1Nc1nc(-c2sc(NC(=O)c3ccco3)nc2C)cs1	6	1	13	-8	32	i	-12	-8
CC(C)(C)[C@H]1C=C(C(=O)NC2CC2)O[C@@H](OCCCCO)C1	4	9	13	5	-11	i	-9	-1
CNC(=O)c1ccccc1-c1cn(C)c2ccccc2c1=O	2	1	-12	-10	-8	i	-3	6
COc1ccccc1C(=O)NC(=O)COC(=O)c1cc[n+]([O-])cc1	-2	2	-26	nt	-8	i	-13	nt
Cc1ccccc1-c1nc(CN2CCC(C(=O)O)CC2)c(C)o1	2	1	4	-11	-10	i	-14	-4
CC(C)C(c1nnnn1Cc1ccccc1)N1CCN(Cc2ccco2)CC1 (stereo unspecified)	-4	-2	nt	2	-2	i	-15	-1
CC1(C2CC2)NC(=O)N(CC(=O)Nc2ccc(C(F)(F)F)cc2)C1=O (stereo unspecified)	-6	-1	5	nt	nt	nt	-12	nt
COc1cc(-c2nnc(COC(=O)c3nn(CC(C)C)c(=O)c4ccccc34)o2)cc(OC)c1OC	3	6	-1	nt	8	i	-8	nt
CC(C)=C1C2C=CC1C(C(=O)Nc1cccc(C)c1)C2C(=O)O (stereo unspecified)	-8	5	nt	21	-10	i	-6	-14

Looked up by structure from above:
SMILES	MT1-MMP act inh	MT1-MMP act inh RFP	HIV Env fusion	PABP FP inh	CSC inhib	Rce1 inh	UUG fidelity	eIF4H FP inh	others
Cc1ccccc1-c1nc(CN2CCC(C(=O)O)CC2)c(C)o1	2	1	4	-11	-10	i	-14	-4
CC1(C2CC2)NC(=O)N(CC(=O)Nc2ccc(C(F)(F)F)cc2)C1=O (stereo unspecified)	-6	-1	5	nt	nt	nt	-12	nt
